Source: PubChem BioAssay
MARV entry inh – inhibitors of Marburg virus binding or cell entry. Marburg virus pseudotyped entry inhibition, cell reporter; control for the full effect not named in the record; about a third of the inactives were read at about 46 µM. AID 540276. actives 1.8% (n = 300,000). Potency, µM (doses to about 37.8 µM), inactives show at the highest dose activity change, negative = inhibition, usual class: inhibitors; active = well fitted inhibition curve with a large enough effect; inconclusive = small, poorly fitted or top-dose-only effect, or effect the other way; inactive = flat fitted curve, though single readings scatter; tested in HEK293 cells; about a fifth of its hits are not listed in these tables; also: % is scaled to controls: 0 for no effect and ±100 for the full control effect; luciferase read-out
StopGo reporter – FMDV 2A StopGo reporter, luciferase signal. human cells with a luciferase reporter of 2A StopGo recoding; control for the full effect not named in the record. Potency, µM (top dose mostly 57.9 µM), for the others: top-dose signal change, negative = less light. actives 1.2% (n = 410,000). AID 1159524; active = well fitted falling curve with a large enough effect; inconclusive = small, poorly fitted or top-dose-only effect; inactive = no such curve, though single readings can be large or run the other way; tested in HEK293T cells; also: % is scaled to controls: 0 for no effect and ±100 for the full control effect; nearly all actives have a fitted effect of over 45% in size; luciferase light after 4 h
Cruzain noTriton – inhibitors of Trypanosoma cruzi cruzain without detergent; P25779; purified cruzain, Z-FR-AMC fluorescence, no detergent; Potency, µM, for inactives: max response, negative = inhibition, usual class: inhibitors; actives 2.3% (n = 200,000); AID 1476;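 also: plate controls were enzyme without inhibitor for no effect and buffer without enzyme for full effect; nearly all actives have a fitted effect of over 40% in size; top concentration of the series not given in the record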
Target sequence (P25779 123-467 limits assumed): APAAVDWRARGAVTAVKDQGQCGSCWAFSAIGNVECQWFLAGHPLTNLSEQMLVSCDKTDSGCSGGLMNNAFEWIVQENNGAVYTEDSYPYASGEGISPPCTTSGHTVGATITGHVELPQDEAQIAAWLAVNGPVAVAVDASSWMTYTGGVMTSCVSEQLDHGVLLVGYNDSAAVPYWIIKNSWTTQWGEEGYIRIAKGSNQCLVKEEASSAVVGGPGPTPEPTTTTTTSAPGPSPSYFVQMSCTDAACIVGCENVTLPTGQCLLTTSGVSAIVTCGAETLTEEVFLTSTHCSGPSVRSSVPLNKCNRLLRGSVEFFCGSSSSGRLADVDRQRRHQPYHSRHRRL
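Purified cruzain at 1.5 nM, pre-incubated 15 min with compound at room temperature in 100 mM sodium acetate pH 5.5, 5 mM DTT, 0.00005% Triton X-100. Reaction started with 2 uM Z-FR-AMC; AMC fluorescence increase over 60 s gives rate.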
LASV entry inh – Lassa virus entry inhibition | actives 1.2% (n = 300,000) | Lassa virus pseudotype entry inhibition, cell reporter; control for the full effect not named in the record | Potency, µM (titrated, usually from 37.9 µM), inactives show at the highest dose activity change, negative = inhibition, actives largely listed as inhibitors; active means well fitted inhibition curve with a large enough effect; inconclusive means small, poorly fitted or top-dose-only effect, or effect the other way; inactive means flat fitted curve, though single readings scatter; tested in HEK293 cells; also: % is scaled to controls: 0 for no effect and ±100 for the full control effect; nearly all actives have a fitted effect of over 50% in size; luciferase read-out
Cruzain Triton – blocks cruzain activity in presence of Triton detergent. actives 0.43% (n = 200,000). Potency, µM, without a hit: max response, negative = inhibition, usual class: inhibitors. purified cruzain, Z-FR-AMC fluorescence, 0.01% Triton. P25779;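 also: plate controls were neutral wells for no effect and buffer without enzyme for full effect; nearly all actives have a fitted effect of over 40% in size; top concentration of the series not given in the record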
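Read-out: AMC fluorescence (360 nm excitation, 450 nm emission), four reads over 2 min, first-to-third difference used. Conditions: cruzain 1.5 nM, Z-FR-AMC 2 uM, pH 5.5 acetate, 5 mM DTT, 0.01% Triton X-100.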
RE007 growth inh – less growth of the S. pombe RE007 Vpr strain; S. pombe RE007 Vpr strain, BacTiter-Glo ATP luminescence, 24 h; control for the full effect not named in the record; Potency, µM (highest dose often 92.2 µM), without a hit: at the top dose activity change, negative = less growth; actives 0.21% (n = 360,000); AID 651644; active = well fitted falling curve with a large enough effect; inconclusive = small, poorly fitted or top-dose-only effect; inactive = no such curve, though single readings can be large or run the other way;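 also: % is scaled to controls: 0 for no effect and ±100 for the full control effect; nearly all actives have a fitted effect of over 50% in size; the assay follows cell death caused by Vpr and the record does not say whether a fall means rescue or toxicity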
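Fission yeast strain RE007, carrying one chromosomally integrated HIV-1 vpr copy, was seeded at OD 0.01 in PMG+AL medium with 23 nL pinned compound. After 24 h at 30 °C and 99% humidity, viability was read by BacTiter-Glo luminescence.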
NS1 inh – influenza NS1 inhibition; actives 0.4% (n = 270,000); AID 2326; S. cerevisiae slowed by influenza A NS1, growth recovery by OD600; Potency, µM (highest dose often 46.1 µM), for inactives: at the highest dose activity, positive = more growth; active means well fitted rising curve with a large enough effect; inconclusive means small, poorly fitted or top-dose-only effect; inactive means no such curve, though single readings can be large or run the other way; also: nearly all actives have a fitted effect of over 50% in size
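Growth recovery, yeast-based: influenza A NS1 expressed in S. cerevisiae causes slow growth, and suppressors are detected by OD600. The parent strain without NS1 is used as positive control.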
SARS PLP yeast – blocks SARS-CoV papain-like protease in a yeast assay; actives 0.19% (n = 330,000); Potency, µM (series often up to 32.9 µM), for the others: top-dose activity, positive = growth rescue; S. cerevisiae expressing SARS-CoV PLpro, growth rescue; control for the full effect not named in the record; active means well fitted rising curve with a large enough effect; inconclusive means small, poorly fitted or top-dose-only effect; inactive means no such curve, though single readings can be large or run the other way; also: 0% is about no effect; nearly all actives have a fitted effect of over 55% in size; growth read by luminescence after 48 h
Starred values were filed as active, the others as inactive; ? = inconclusive; . = not tested or not shown; & = joins results of further samples; [ ] = remark or other dose. Unless noted, calls follow the shape of the dose curve; as a rule, active = well fitted curve in the direction sought with a large enough effect; inconclusive = small, poorly fitted or top-dose-only effect, or another doubt; inactive = no such curve, though single readings can be large; an effect the other way counts as inactive or inconclusive. Potency is read from the fitted curve at half-maximal effect. The order is random; 4.7% or so of the library scored in one or more.

SMILES	MARV entry inh	StopGo reporter	Cruzain noTriton	LASV entry inh	Cruzain Triton	RE007 growth inh	NS1 inh	SARS PLP yeast
COc1ccc(OC)c(NC(=O)Nc2cccc3ccccc23)c1	-24.0%	2.6%	4.8%	-27.1%[14.3 µM]	2.5%	-7.3%	1.3%	3.9%
CC(C)(O)c1nnn(-c2ccccc2)c1C(F)(F)F	12.4%[46.1 µM]	15.1%	-1.6%	-1.3%	0.9%	-6.2%	3.7%	-0.7%
CCC1CN(C(=O)N2CCC(C(=O)NCc3cccc(OC)c3OC)CC2)c2cc(C)ccc2O1 (stereo unspecified)	-13.0%&-13.0%[46.1 µM]	-25.5%&-27.9%	2.4%	?	-6.8%	-16.9%	-13.4%	14.9%
CC(=O)c1cccc(NC(=O)c2cc(C(C)C)on2)c1	.	77.2%[activator]	5.7%	.	1.5%	-16.3%	-56.7%	-3.9%
O=C(NC1CC1)c1cccc(Br)c1	?	-13.3%	1.6%	19.3%	-0.6%	-6.0%	2.7%	6.7%
Cn1c(SCC(=O)Nc2ccc(N3CCOCC3)cc2)nnc1-c1ccccc1F	7.5%[46.1 µM]	2.4%	.	2.0%	.	-2.5%	9.3%	1.3%
CCCCC(=O)NNC(=S)NCc1ccccc1	?	6.8%	.	9.9%[46.1 µM]	.	-4.8%	-8.4%	0.8%
CCOC(=O)/C=C/C(=O)OCC(=O)N1CCN(C(=O)c2ccco2)CC1	?	?	.	-20.7%	.	-4.7%	2.2%	0.6%
CCOc1ccc(N(C(=O)Cn2nnc3ccccc32)C(C(=O)NC(C)(C)CC)c2cccn2C)cc1 (stereo unspecified)	21.2%	-0.4%	?	-6.8%	-5.8%	-6.6%	10.0%	-12.8%
Cc1ccc(NS(=O)(=O)c2ccc3c(c2)CCC(=O)N3)cc1C	-12.0%&-12.0%[46.1 µM]	18.2%&20.5%	.	-15.8%	.	13.4%	.	2.5%
CCOc1ccc(S(=O)(=O)Nc2ccccc2SC)c2cccnc12	-3.1%	11.4%	15.5%	?	3.4%	-4.4%	-2.0%	3.6%
CC(C)NC(=O)C(=O)NCc1ccccn1	1.8%[46.1 µM]	-7.5%	.	-6.2%[46.1 µM]	.	8.8%	-0.8%	1.4%

The list goes on, overlapping the part above by 2 compounds.
SMILES	MARV entry inh	StopGo reporter	Cruzain noTriton	LASV entry inh	Cruzain Triton	RE007 growth inh	NS1 inh	SARS PLP yeast
CCOc1ccc(S(=O)(=O)Nc2ccccc2SC)c2cccnc12	-3.1%	11.4%	15.5%	?	3.4%	-4.4%	-2.0%	3.6%
CC(C)NC(=O)C(=O)NCc1ccccn1	1.8%[46.1 µM]	-7.5%	.	-6.2%[46.1 µM]	.	8.8%	-0.8%	1.4%
Cc1nn(Cc2ccccc2)c(Cl)c1/C=C1\NC(=S)NC1=O	13.8%[46.1 µM]	-11.3%	.	-20.1%[46.1 µM]	.	3.8%	-4.4%	-1.4%
Cc1cccc(OCC(=O)N/N=C/c2ccc3c(c2)OCO3)c1	-0.1%[14.2 µM]	-7.8%	.	-5.3%	.	-6.1%	-8.2%	-1.1%
CCOC(=O)C1CCCN(CCCc2ccccc2)C1 (stereo unspecified)	13.8%	-15.6%&-4.9%	-0.5%&-3.1%	8.7%	-3.7%&2.3%	2.5%&2.0%	8.3%&-0.5%	-0.6%&-8.3%
CCOC(=O)C(C(=O)Nc1ccccc1C)C1CCCCC1 (stereo unspecified)	-6.5%	.	-10.6%	7.7%	6.7%	-13.8%	3.0%	4.8%
Cc1cccc(OC(=O)NCCOC(=O)N(O)c2ccc(Cl)cc2)c1	23.6%	0.0%	-3.7%	-20.6%	?	7.8%	1.6%	28.6%
Cc1ccc(C(=O)NNC(=O)c2n[nH]c(=O)c3ccccc23)cc1C	0.3%[46.1 µM]	36.1%[activator]	.	7.0%	.	2.6%	.	-1.0%
CCOC(=O)NC(=O)c1cn(CCN(C)C)c(=O)[nH]c1=O	2.6%	-1.5%	-3.7%	7.7%	-2.1%	-0.1%	6.8%	-4.8%
Cc1ccc(Oc2ccc(C(=O)NC3CCSC3=O)cn2)cc1 (stereo unspecified)	4.9%	7.1%	-3.9%	6.0%	0.8%	4.0%	21.4%	6.9%
C(=Cc1cnnc2ccccc12)c1ccccc1	?	19.0%	.	-7.8%[46.1 µM]	.	-13.3%	.	.
COc1cc(OC)cc(OCC(O)Cn2cnc3cc(C)c(C)cc32)c1 (stereo unspecified)	.	?	-4.9%	.	-6.6%	14.9%	-30.6%	1.2%
CSc1cccc(NC(=O)CCCNC(=O)c2ccc(Cl)cc2)c1	?	-1.5%	.	6.4%	.	1.9%	-14.8%	0.0%
O=[N+]([O-])c1ccc(N/N=C\c2ccccc2OCc2ccccc2)cc1	?	-1.6%	25.1µM*	-10.4%	-3.4%	-1.3%	-4.6%	6.1%

Quoted at random: four compounds from above, in no set order.
SMILES	MARV entry inh	StopGo reporter	Cruzain noTriton	LASV entry inh	Cruzain Triton	RE007 growth inh	NS1 inh	SARS PLP yeast
CCOC(=O)C(C(=O)Nc1ccccc1C)C1CCCCC1 (stereo unspecified)	-6.5%	.	-10.6%	7.7%	6.7%	-13.8%	3.0%	4.8%
C(=Cc1cnnc2ccccc12)c1ccccc1	?	19.0%	.	-7.8%[46.1 µM]	.	-13.3%	.	.
O=[N+]([O-])c1ccc(N/N=C\c2ccccc2OCc2ccccc2)cc1	?	-1.6%	25.1µM*	-10.4%	-3.4%	-1.3%	-4.6%	6.1%
CSc1cccc(NC(=O)CCCNC(=O)c2ccc(Cl)cc2)c1	?	-1.5%	.	6.4%	.	1.9%	-14.8%	0.0%

Going on with the list.
SMILES	MARV entry inh	StopGo reporter	Cruzain noTriton	LASV entry inh	Cruzain Triton	RE007 growth inh	NS1 inh	SARS PLP yeast
Cc1cc(NCc2cccnc2)no1	2.9%[46.1 µM]	-7.2%	.	17.0%[46.1 µM]	.	4.6%	-0.8%	-0.5%
Cc1ccc(C)c(Cn2c3ccccc3c3cnn(CC(=O)NC(C)c4ccccc4)c(=O)c32)c1 (stereo unspecified)	11.0%[46.1 µM]	4.0%	8.1%	-8.3%[46.1 µM]	0.6%	.	.	.
Cc1cccc(N2CCN(S(=O)(=O)c3ccc4c(c3)CC(C)N4C(=O)C3CC3)CC2)c1C (stereo unspecified)	.	?	.	.	.	-1.2%	1.6%	-2.9%
Cc1nonc1NC(=O)c1oc2ccc(F)cc2c1C	.	4.0%	.	.	.	11.0%	-0.5%	-4.5%
Cc1c(C(=O)Nc2ccc(F)c(Cl)c2)oc2ccc(S(=O)(=O)N(C)C3CCCCC3)cc12	.	-14.7%	?	12.1%[46.1 µM]	0.7%	.	.	.
COc1ccc(C)cc1N(CC(=O)Nc1ccc2c(c1)OCCO2)S(C)(=O)=O	.	21.1%	.	.	.	-4.3%	0.4%	0.3%
O=C(CCNC(=O)c1ccc(Br)cc1)Nc1ccc(S(=O)(=O)N2CCCCC2)cc1	-11.0%	-2.5%	.	-27.4%	.	-6.6%	.	-6.1%
Cc1cccc(NC(=O)CSc2n[nH]c(-c3cccnc3)n2)c1	?	-3.7%	.	9.3%[46.1 µM]	.	-13.8%	6.0%	-9.6%
COc1cc(/C=N/Nc2nc(C)cc(=O)[nH]2)ccc1O	.	26.1%	.	.	.	5.9%	1.4%	-0.3%
O=c1oc(-c2cccs2)nc2c1cnn2-c1ccccc1	-12.5%	8.1%	-7.1%	-16.3%	6.5%	16.3%	-4.9%	0.6%
Clc1ccccc1-c1nnc(CNC2CC2)o1	1.4%[46.1 µM]	7.2%	.	-17.6%[46.1 µM]	.	-4.8%	.	1.3%
CC1=CC(c2ccccc2)=Nc2ccc(C)cc2N1	?	68.7%[activator]	-14.5%	?	-2.9%	-21.1%	-3.2%	-7.5%
Clc1ccc(-c2ccnc3nc(N4CCOCC4)nn23)c(Cl)c1	-2.7%[46.1 µM]	-16.8%	.	27.5%	.	-8.4%	.	.
Cc1cccc2c(-c3ccccc3)cc(=O)[nH]c12	-16.5%	-18.3%	-3.3%	6.1%	-4.2%	2.1%	-21.3%	-11.1%
CCCCCOC(=O)CC(C(=O)OCCCCC)N1CCCCC1 (stereo unspecified)	?	?	14.0%	?	-5.9%	-21.0%	-8.1%	-23.4%
C=CCNC(=O)CSCc1ccc(Br)cc1	.	2.2%	.	.	.	23.8%	4.5%	0.0%
COc1ccc(NC(=O)CSc2nnc(-c3cccnc3)s2)cc1	11.1%[46.1 µM]	-6.4%	.	?	.	16.4%	4.0%	-9.3%
CCC1CCCCN1S(=O)(=O)c1ccc(NC(=O)c2ccncc2)cc1 (stereo unspecified)	?	?	.	?	.	-15.0%	-13.0%	-2.6%
Cc1cc(C(=O)COC(=O)c2ccc(O)cc2)c(C)n1CC1COc2ccccc2O1 (stereo unspecified)	-1.2%	-0.9%	25.1µM*	-22.9%	-4.1%	11.7%	17.3%	-7.4%
O=C(CN1C(=O)c2cccc3cccc1c23)NC1CCCCC1	11.8%[46.1 µM]	3.6%	.	.	.	27.6%	5.7%	-1.6%
CC1(C)CC2CCC(O)C2C(CCO)N1 (stereo unspecified)	9.4%	-15.9%	.	-0.3%	.	-5.7%	.	.
Cc1ccc(C)c(OCc2cc(C(=O)N3CCN(c4cnccn4)CC3)no2)c1	-11.9%	?	.	17.8%	.	-3.2%	-26.7%	-4.8%
CCOC(=O)C1=C(COC(=O)C2CC(=O)N(c3ccccc3F)C2)NC(=O)NC1C (stereo unspecified)	-13.7%	-11.0%	.	0.6%	.	-6.6%	.	-2.2%
CN1CCN(CCNC(=O)c2cnn(-c3ccc(Cl)cc3)c2C2CCN(C(=O)OC(C)(C)C)CC2)CC1	.	-19.2%	?	-6.1%[46.1 µM]	-3.4%	.	.	.
COc1ccccc1-c1nnc(SCC(=O)Nc2ccccc2F)o1	?	52.7%[activator]	4.2%	-0.2%[46.1 µM]	-4.9%	.	.	.
